Rpn11 inh = blocks the human proteasome subunit Rpn11; calls only at 20 µM; O00487; actives 0.59% (n = 360,000); human 26S proteasome, Ub4-pepOG fluorescence polarization; 20S core pre-blocked with epoxomicin;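 active means inhibition at 20 µM, scaled to each plate's controls, above about 33%, limit read from the data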
MsrA inhibitor = inhibits bovine methionine sulfoxide reductase A; purified bovine MsrA, absorbance read-out; actives 0.75% (n = 360,000); inhibition, % at 15.5 µM; in the data active means inhibition above about 4.5%;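 further: 0% = vehicle wells with enzyme and 100% = reference inhibitor wells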
CSN deneddyl inh = blocks human CSN-mediated cullin deneddylation; Purified CSN, SCF-Nedd8-OG deneddylation, fluorescence polarization; inhibition, % at 12.5 µM; AID 651999; actives 0.38% (n = 360,000);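 active means pattern-corrected inhibition above about 35%, with an unprinted fluorescence ratio check between 0.5 and 1.5, limit read from the data, passing the limit was not always enough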;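 further: 0% = enzyme with substrate and 100% = substrate without enzyme; some results filed as inactive read as strong as hits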
Target sequence (Q92905 whole entry, looked up, one chain of several): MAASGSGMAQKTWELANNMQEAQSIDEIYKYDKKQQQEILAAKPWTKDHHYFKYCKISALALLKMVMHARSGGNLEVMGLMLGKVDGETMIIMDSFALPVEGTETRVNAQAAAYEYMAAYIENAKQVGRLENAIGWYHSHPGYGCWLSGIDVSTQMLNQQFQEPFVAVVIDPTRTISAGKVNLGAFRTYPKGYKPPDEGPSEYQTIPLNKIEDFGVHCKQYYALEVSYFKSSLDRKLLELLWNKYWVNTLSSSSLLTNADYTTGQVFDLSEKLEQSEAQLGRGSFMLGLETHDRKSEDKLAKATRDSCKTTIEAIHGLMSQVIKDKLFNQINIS
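Test system: purified human Csn5 enzyme expressed in HEK293T cells. Amount: 0.24 nM enzyme. Reagent: SCFSkp2-Nedd8OG substrate at 10 nM final. Schedule: 90 min incubation of compound, enzyme and substrate at room temperature. Detection: fluorescence polarization. Read-out: % inhibition of substrate cleavage by Csn5.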
PABP1 MLLE inh = inhibitors of microRNA-mediated deadenylation, human PABP1 MLLE binding. inhibition, % at 20 µM. GST-MLLE / FITC-PAM2 fluorescence polarization. actives 0.36% (n = 360,000); in the data active means inhibition above about 35%, passing the limit was not always enough;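 further: plate controls were DMSO wells with GST-MLLE for no effect and wells lacking GST-MLLE protein for full effect; some results filed as inactive read as strong as hits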
FAS-TE inh = blocks the thioesterase domain of human fatty acid synthase | P49327 | recombinant FAS-TE, OMFH fluorogenic substrate, fluorescence endpoint | inhibition, % at 15 µM | actives 0.67% (n = 360,000) | AID 602261;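 active means compounds whose normalised, plate-corrected inhibition of enzyme fluorescence in the single-dose primary screen is 50% or more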;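 further: 0% = DMSO with enzyme and 100% = substrate without enzyme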
bovine MsrA act = activates bovine MsrA enzyme; activation, % at 10.6 µM; actives 0.3% (n = 360,000); AID 602163; purified bovine MsrA, absorbance read-out; in the data active means activation above about 7.5%;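 further: 0% = vehicle and 100% = reference activator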
Active calls of the source: *; i = inactive; . = no result given. Not all compounds are listed; count on the stated rates, not on these rows.

Each structure is followed by: Rpn11 inh | MsrA inhibitor | CSN deneddyl inh | PABP1 MLLE inh | FAS-TE inh | bovine MsrA act
CCN(CC)CC#CCOC(=O)C(O)(c1ccccc1)C1CCCCC1 (stereo unspecified)
 : i | 0.2 | 1 | -4 | . | -6
Cc1nn(C)cc1N1C(=O)c2cccc3c(N)ccc(c23)C1=O
 : i | -0.8 | -78 | i | -132 | -4
CNCCC(Oc1ccc(C(F)(F)F)cc1)c1ccccc1 (stereo unspecified)
 : i | -2.1 | -1 | -3 | -4 | 1
COc1ccc(-c2cn3ccccc3n2)cc1
 : i | 1.8 | -3 | 1 | -5 | 0
CNCC[C@@H](Oc1ccc(C(F)(F)F)cc1)c1ccccc1
 : i | -1.2 | 2 | 6 | -3 | -1
CC[n+]1c(/C=C/c2ccc(N(C)C)cc2)ccc2ccccc21
 : i | 0.1 | 2 | -162 | -13 | -9
COc1cccc(Nc2nc(NCC3CCCO3)c3ccccc3n2)c1 (stereo unspecified)
 : i | -0.3 | 3 | 8 | -2 | -1
COCCn1c(C)cc(C(=O)COC(=O)c2ccccc2Br)c1C
 : i | 0.8 | -1 | 6 | 14 | -4
O=C(Nc1nc2cc3c(cc2s1)OCO3)C1=COCCO1
 : i | 5.2* | 2 | 6 | -3 | -5

Only CSN deneddyl inh, FAS-TE inh and Rpn11 inh, for 3 of the compounds above:
SMILES	CSN deneddyl inh	FAS-TE inh	Rpn11 inh
COc1ccc(-c2cn3ccccc3n2)cc1	-3	-5	i
CNCC[C@@H](Oc1ccc(C(F)(F)F)cc1)c1ccccc1	2	-3	i
CC[n+]1c(/C=C/c2ccc(N(C)C)cc2)ccc2ccccc21	2	-13	i

Part of the list above in order of molar mass, falling:
Each structure is followed by: Rpn11 inh | MsrA inhibitor | CSN deneddyl inh | PABP1 MLLE inh | FAS-TE inh | bovine MsrA act
COCCn1c(C)cc(C(=O)COC(=O)c2ccccc2Br)c1C
 : i | 0.8 | -1 | 6 | 14 | -4
COc1cccc(Nc2nc(NCC3CCCO3)c3ccccc3n2)c1 (stereo unspecified)
 : i | -0.3 | 3 | 8 | -2 | -1
CNCC[C@@H](Oc1ccc(C(F)(F)F)cc1)c1ccccc1
 : i | -1.2 | 2 | 6 | -3 | -1
CC[n+]1c(/C=C/c2ccc(N(C)C)cc2)ccc2ccccc21
 : i | 0.1 | 2 | -162 | -13 | -9
